# Screening data from PubChem BioAssay.
# YopH inh: blocks Yersinia enterocolitica YopH tyrosine phosphatase; fluorescence Ex485/Em525; inhibition, %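 (about 10 µM by stock and volumes)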; 0.16% of 140,000 active; AID 898;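 active = inhibition of 50% or more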;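 also: controls were vehicle for no effect and minimum signal wells for full effect; inactives centre near -20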
# Mtb betalactam: beta-lactam sensitization of Mtb H37Rv. M. tuberculosis H37Rv growth with meropenem, percent inhibition; hits of this screen are not shown here. inhibition, % at 25 µM. 0.27% of 330,000 active. AID 434955;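 active = about 74% or more and at least 40 points above the plate without the antibiotic, then above 30% in a dose series; inconclusive = first-round hits that could not be retested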;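 also: growth measured after seven days incubation then overnight dye step; 0% = bacteria only wells and 100% = bacteria with antibiotic; twin plates without the antibiotic show which effects depend on it; some results filed as inactive read as strong as hits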
# Arbovirus anti: antivirals against arbovirus infection. arbovirus infection cell-based antiviral screen. inhibition, % at 10 µM. 0.37% of 200,000 active. AID 1251;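 active = inhibition from about 30%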;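 also: bluetongue infection of BSR cells; cell survival read as ATP light after 72 h; 0% = infected wells without compound and 100% = uninfected wells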
# Mtb H37Rv: M. tuberculosis H37Rv growth inhibitors, H37Rv strain (AID 1626); M. tuberculosis H37Rv growth inhibition; higher % means a stronger effect; one-dose inhibition, % at 10 µM; IC50 in µM for titrated hits; 0.95% of 220,000 active;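 active = confirmed in a dose series; inconclusive = inhibition above 80% but not taken into the dose series; inactive = below 80% or under 30% at every dose of the series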;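 also: bacteria incubated seven days before Alamar blue readout; 0% = bacteria only wells and 100% = bacteria with antibiotic wells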
# RecA splice inh: inhibitors of M. tuberculosis RecA intein splicing. P9WHJ3. cell-free RecA intein splicing, fluorescence. inhibition, %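 (about 9 µM by stock and volumes)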. 0.75% of 290,000 active. AID 2221; in the data active = inhibition above about 30%; inconclusive = no clear call, values can overlap the other calls;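 also: 0% = vehicle wells and 100% = reference inhibitor control wells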
# Target sequence (P9WHJ3 whole entry, looked up, canonical isoform): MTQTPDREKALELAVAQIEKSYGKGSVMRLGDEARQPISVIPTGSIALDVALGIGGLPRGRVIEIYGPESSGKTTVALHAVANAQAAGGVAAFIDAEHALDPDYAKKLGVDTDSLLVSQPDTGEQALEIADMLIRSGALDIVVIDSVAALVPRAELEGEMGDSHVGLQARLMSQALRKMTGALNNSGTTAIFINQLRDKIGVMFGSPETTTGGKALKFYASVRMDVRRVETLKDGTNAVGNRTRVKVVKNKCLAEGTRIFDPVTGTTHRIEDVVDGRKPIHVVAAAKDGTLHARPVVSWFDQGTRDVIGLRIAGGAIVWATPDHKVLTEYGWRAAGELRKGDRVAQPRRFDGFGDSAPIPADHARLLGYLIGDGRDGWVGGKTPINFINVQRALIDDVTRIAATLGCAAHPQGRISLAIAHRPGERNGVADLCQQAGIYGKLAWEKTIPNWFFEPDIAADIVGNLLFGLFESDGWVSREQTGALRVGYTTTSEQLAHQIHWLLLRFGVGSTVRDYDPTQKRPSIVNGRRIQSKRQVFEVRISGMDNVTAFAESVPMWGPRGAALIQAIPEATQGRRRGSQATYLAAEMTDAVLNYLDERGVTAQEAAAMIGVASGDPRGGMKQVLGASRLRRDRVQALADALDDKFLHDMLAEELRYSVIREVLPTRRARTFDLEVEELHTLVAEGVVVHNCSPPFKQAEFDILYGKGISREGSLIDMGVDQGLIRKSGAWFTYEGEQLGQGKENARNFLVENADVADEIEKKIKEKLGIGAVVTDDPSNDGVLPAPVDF
# Arbovirus anti repeat: recorded beside Arbovirus anti, whose call it bears; inhibition, %; measured here: 10K subset replicate screen; many hits read low in the repeat;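 first of two repeat runs on a subset; 0% = infected and 100% = uninfected wells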
# * = called active by the depositor; ? = inconclusive; · = not tested or not shown. Some of the compounds tested. The share of hits here may be higher or lower than overall.
SMILES,YopH inh,Mtb betalactam,Arbovirus anti,Mtb H37Rv,RecA splice inh,others
COc1cc(C(=O)N2CCN(S(=O)(=O)c3ccc(F)cc3)CC2)cc(OC)c1OC,-2,-3,6,-4%,0.8,
CCOC(=O)c1ccc(NC(=O)COc2ccc(S(=O)(=O)NC(C)C)cc2)cc1,1,-3,5,-13%,2.2,
Cc1ccc(C(=O)NCCc2nnc3ccc(SCC(=O)Nc4cc(C)on4)nn23)cc1,·,-1,2,5%,0.8,
O=C(CCNS(=O)(=O)c1ccccc1)N1CCN(c2ccccc2F)CC1,·,-22,·,·,3.5,
CSc1cccc(NS(=O)(=O)c2ccccc2)c1,5,3,4,3%,3.4,Arbovirus anti repeat=4
CC(=O)c1c(C)nc2ccccc2c1N,-8,-2,3,-7%,-0.2,
Cc1ccc(C)c(NC(=O)CSc2nc(=O)n(CCN3CCOCC3)c3c2CCCC3)c1,·,1,·,·,-4.2,
CN(C)C(=O)COC(=O)c1cccc(CN2C(=O)c3ccccc3C2=O)c1,·,-6,8,1%,-1.5,
CCC1CCCCN1C(=O)CSc1nc2c([nH]c3ccccc32)c(=O)n1C (stereo not drawn),-7,23,-6,12%,2.9,Arbovirus anti repeat=-12
O=C(COc1ccc(S(=O)(=O)N2CCCCC2)cc1)NCc1cccnc1,-5,-7,-8,-6%,1.1,
COc1ccc(COc2ccsc2C(=O)Nc2ccc(Cl)cc2)cc1,-38,-1,-14,4%,1.3,
Cc1cccc(OCCCC(=O)Nc2ccc(S(=O)(=O)Nc3ncccn3)cc2)c1C,·,-7,·,·,-5.5,
O=C(Cn1cccc1C(=O)c1ccccc1)NCCN1CCOCC1,-28,-15,-1,-6%,-0.1,
COC(=O)C1=C(O)/C(=C\c2ccc(O)c(OC)c2)N=C1C,-29,-5,3,-2%,-1.2,
CCCCNC(=S)N(CCCN(C)C)Cc1cc2cc3c(cc2[nH]c1=O)OCO3,·,-6,·,·,-5.1,
CC1Cc2cc(/C(O)=C3/C(=O)C(=O)N(CCCn4ccnc4)C3c3ccc(Br)cc3)ccc2O1 (stereo not drawn),·,-1,·,·,4.5,
O=C(NC(Nc1nc2ccc([N+](=O)[O-])cc2s1)(C(F)(F)F)C(F)(F)F)c1ccccc1,-24,100,-24,25%,6.2,
Cc1ccc(CSc2nc3ccsc3c(=O)n2Cc2ccccn2)cc1,-12,0,-17,0%,14,
Cc1cc(C(F)(F)F)nn1CC(=O)NNC(=S)Nc1ccc(F)cc1,1,·,-3,-8%,-0.8,
CC(=O)Nc1ccc(NC(=O)c2cc(=O)c3ccccc3o2)cc1,·,-4,·,·,3.3,
COc1cccc(CN2CC(C(=O)N(C)C3CCOCC3)CCC2=O)c1 (stereo not drawn),·,-3,·,·,-0.7,
O=C(CCCN1CCC(C(=O)c2ccc(F)cc2)CC1)c1ccc(F)cc1,·,4,·,·,0.2,
CC(C)c1ccccc1NC(=S)N(C)C,·,8,·,4%,0.7,
COc1ccccc1Nc1nc(-c2cccc(N3C(=O)c4ccccc4C3=O)c2)cs1,3,9,-1,-8%,1.8,
O=C(COC(=O)c1ccc([N+](=O)[O-])cc1Cl)NC(=O)c1ccccc1,·,20,·,·,-3.7,
c1cnn(Cc2cnc(N3CCOCC3)s2)c1,·,-6,4,3%,-0.8,
Cc1cc(C)c(NC(=O)c2cnn(C)c2)c(C)c1,-11,-5,6,4%,-2.7,
CCOc1ccccc1N(C)S(=O)(=O)c1ccc2[nH]cc(C(=O)N(CCOC)CCOC)c(=O)c2c1,·,7,·,·,-1.4,
CC(C)Cn1c(=O)c(C(=O)NCc2ccc3c(c2)OCO3)c(O)c2ccccc21,·,2,·,·,3.3,
COc1ccc(NC(=O)[C@@H]2CC=C[C@@H]3CCN(Cc4ccccc4)C(=O)[C@@H]32)cc1,·,-4,·,11%,3.2,
Cn1c(CCC(=O)OCC(=O)NCc2ccc3c(c2)OCO3)nc(=O)c2ccccc21,·,-6,14,1%,-0.7,
CC(C(=O)Nc1cccnc1)C1Sc2ccccc2NC1=O (stereo not drawn),·,-8,0,-3%,-0.1,
COC(=O)C1=C(C(=O)OC)[C@@H]2N(C)c3ccc(OC)cc3[C@@]23C[C@@H](C(=O)OC)N(C(=O)C2CCC2)C3=N1,·,-6,·,-4%,5.2,
COCCOc1cc(NC(=O)CS(=O)CC(=O)N(C)C)c(Cl)cc1Cl (stereo not drawn),·,-7,4,1%,-0.9,
CCN(CC)c1ccc(/C=N/NC(=O)c2nnn(-c3nonc3N)c2-c2ccc(C)cc2)cc1,·,1,·,·,-7.4,
COc1ccc(C(C(=O)NC(C)(C)C)N(C(=O)CNC(=O)c2cccs2)c2ccc(C)cc2)cc1OC (stereo not drawn),-36,-3,1,-15%,-2.5,
CC12CCC(C(=O)N(NC(=O)c3cccnc3)C1=O)C2(C)C (stereo not drawn),-25,2,-3,4%,0.0,
Cn1c(=O)[nH]c(=O)c2c1nc(NCCCO)n2Cc1ccc(F)cc1,-37,-7,-2,-3%,0.9,
Cc1ccc(-c2nn(C)c(=O)c3ccccc23)cc1CO,-40,-2,-10,1%,1.5,
Cc1ccccc1CCN(C(=O)CN1C(=O)c2ccccc2S1(=O)=O)C(C(=O)NCC1CCCO1)c1ccncc1 (stereo not drawn),-17,-5,-3,3%,0.1,
CC[C@H]1OC(=O)[C@H](C)[C@@H](O[C@H]2C[C@@](C)(OC)[C@@H](O)[C@H](C)O2)[C@H](C)[C@@H](O[C@@H]2O[C@H](C)C[C@H](N(C)C)[C@H]2O)[C@](C)(O)C[C@@H](C)[C@@H]2N[C@@H](COCCOC)O[C@H]([C@H]2C)[C@]1(C)O,-12,40,-1,30%,1.8,
CCc1ccc(-c2cc(C)no2)cc1S(=O)(=O)NCc1ccco1,·,5,·,·,2.8,
Cc1cccc(NC(=O)c2nc[nH]c2C(=O)N[C@@H](CCCCNC(=O)OC(C)(C)C)C(=O)OC(C)(C)C)c1,·,-12,·,14%,1.6,
Cc1nc(C(N)=O)c(N)n1CCc1ccccc1,·,-4,·,·,-1.6,
Cn1c(=O)c2c(nc(NC3CCCCC3)n2Cc2ccccc2)n(C)c1=O,-50,4,-8,13%,1.3,Arbovirus anti repeat=-9
CCOC(=O)c1c(S(=O)(=O)NCCCc2ccco2)c(C)n(C)c1C,·,-9,·,·,-0.3,
Cc1ccc(S(=O)(=O)CCC(=O)Oc2ccc(-c3nnco3)cc2)cc1,·,-2,·,·,11,
CC(/C=N/NC(=O)c1sc(N)nc1C)=C\c1ccccc1,·,2,14,-4%,-1.0,
CCOC(=O)COc1c(OC)cc(Cl)cc1C1NC(=O)NC(C)=C1C(C)=O (stereo not drawn),-14,-7,7,-3%,4.4,
CC(OC(=O)c1cccc(-n2cnnn2)c1)C(=O)Nc1ccc(F)cc1 (stereo not drawn),·,-1,·,·,3.1,
O=C(NCc1ccccc1Cl)C1CCCN1C(=O)NCc1ccccc1 (stereo not drawn),·,3,·,·,1.3,
CC1CN(C(=O)Cn2cc(SCC(=O)N3CCOCC3)c3ccccc32)CC(C)O1 (stereo not drawn),·,-9,·,·,0.4,
O=C(OCn1nnc2ccccc2c1=O)c1ccc(S(=O)(=O)N2CCOCC2)cc1,-20,4,10,-8%,1.4,
Cc1cc(C)c(S(=O)(=O)NCC2CCC(C(=O)NCCCN3CCC(C)CC3)CC2)c(C)c1 (stereo not drawn),·,2,·,·,-4.9,
CCC(c1nnnn1CCC(C)C)N1CCC(C(N)=O)CC1 (stereo not drawn),-11,12,-2,7%,-0.8,
COc1ccc(C(=O)Nc2ccccc2NC(=O)c2ccco2)c(OC)c1,·,-2,10,-6%,0.2,
CC(OC(=O)c1ccc2ncsc2c1)C(=O)NCc1ccccc1 (stereo not drawn),1,1,-4,-11%,2.0,
COc1ccc(OCc2cc(C(=O)NCc3cccc(C)n3)no2)c(Cl)c1,·,?,·,·,1.0,
CCCc1cc(NCCCCO)n2c(nc3ccccc32)c1C#N,-32,?,-13,-3%,-134,
O=C(O)CCCCN1C(=O)/C(=C\c2ccc(OCc3ccccc3)c(OCc3ccccc3)c2)SC1=S,·,14,·,·,17,

# Already shown: entries from further up.
SMILES,YopH inh,Mtb betalactam,Arbovirus anti,Mtb H37Rv,RecA splice inh,others
COc1cc(C(=O)N2CCN(S(=O)(=O)c3ccc(F)cc3)CC2)cc(OC)c1OC,-2,-3,6,-4%,0.8,
CCOC(=O)c1ccc(NC(=O)COc2ccc(S(=O)(=O)NC(C)C)cc2)cc1,1,-3,5,-13%,2.2,
Cc1ccc(C(=O)NCCc2nnc3ccc(SCC(=O)Nc4cc(C)on4)nn23)cc1,·,-1,2,5%,0.8,
O=C(CCNS(=O)(=O)c1ccccc1)N1CCN(c2ccccc2F)CC1,·,-22,·,·,3.5,
CSc1cccc(NS(=O)(=O)c2ccccc2)c1,5,3,4,3%,3.4,Arbovirus anti repeat=4
CC(=O)c1c(C)nc2ccccc2c1N,-8,-2,3,-7%,-0.2,
Cc1ccc(C)c(NC(=O)CSc2nc(=O)n(CCN3CCOCC3)c3c2CCCC3)c1,·,1,·,·,-4.2,
CN(C)C(=O)COC(=O)c1cccc(CN2C(=O)c3ccccc3C2=O)c1,·,-6,8,1%,-1.5,
CCC1CCCCN1C(=O)CSc1nc2c([nH]c3ccccc32)c(=O)n1C (stereo not drawn),-7,23,-6,12%,2.9,Arbovirus anti repeat=-12
O=C(COc1ccc(S(=O)(=O)N2CCCCC2)cc1)NCc1cccnc1,-5,-7,-8,-6%,1.1,
COc1ccc(COc2ccsc2C(=O)Nc2ccc(Cl)cc2)cc1,-38,-1,-14,4%,1.3,
Cc1cccc(OCCCC(=O)Nc2ccc(S(=O)(=O)Nc3ncccn3)cc2)c1C,·,-7,·,·,-5.5,
O=C(Cn1cccc1C(=O)c1ccccc1)NCCN1CCOCC1,-28,-15,-1,-6%,-0.1,
COC(=O)C1=C(O)/C(=C\c2ccc(O)c(OC)c2)N=C1C,-29,-5,3,-2%,-1.2,
CCCCNC(=S)N(CCCN(C)C)Cc1cc2cc3c(cc2[nH]c1=O)OCO3,·,-6,·,·,-5.1,

# Later entries:
SMILES,YopH inh,Mtb betalactam,Arbovirus anti,Mtb H37Rv,RecA splice inh,others
COc1cccc(C(c2sc3nc(C)nn3c2O)N2CCN(C(=O)c3ccco3)CC2)c1 (stereo not drawn),-42,-4,2,-1%,2.1,
NC(=O)[C@H](Cc1cc2ccccc2s1)NC(=O)[C@@H]1CC2(CC(c3cccc(NC(=O)[C@@H]4CCC(=O)N4)c3)=NO2)CN1C(=O)c1ccccc1 (stereo partly drawn),-3,1,2,-7%,-1.9,
COc1ccc(OCC(=O)NCCNC(=O)c2cccnc2)cc1,·,-4,·,·,-6.8,
O=C1CC(C2CCCO2)C(=O)N1Cc1ccccc1 (stereo not drawn),-9,3,·,-8%,2.3,
CCOc1ccc2c(c1)OC(c1ccc(C)cc1)(C(F)(F)F)NC2=O (stereo not drawn),-3,2,-5,8%,3.0,
COc1cc2nc(CC(C)C)n(NC(=O)c3ccccc3)c(=O)c2cc1OC,-46,11,11,-4%,-2.9,
Cc1ccc(NC(=O)CSc2ccccc2NC(=O)c2cccc(Cl)c2)cc1Cl,-37,5,-6,-12%,2.3,
COc1ccc(CCNS(=O)(=O)c2cn(C)cn2)cc1OC,·,7,·,·,-1.9,
Cc1ccc(COC(=O)NCc2cccnc2)cc1,·,4,·,·,-3.9,
